# Assay outcomes: PubChem BioAssay, several laboratories
# VCAM-1 rise = enhancers of VCAM-1 display on endothelial cells, cell-based, plate reader, pooled HUVEC, TNFa stimulus (AID 455) | HUVEC TNFa-induced VCAM-1 immunofluorescence, plate reader; numbers were filed only for top-ranked candidate wells | augmentation, % at 5 µM | 0.2% of 10,000 active;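 active means a compound raising TNF-alpha-driven VCAM-1 surface staining, with its hit status upheld on visual or statistical review; inactive means the rest, including hits rejected on review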;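 further: 0% = TNFa with vehicle and 100% = strongest image-checked hit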
# Proteasome disasm = blocks ATP-dependent breakdown of the yeast 26S proteasome; inhibition of disassembly, % (test concentration not listed); AID 751; 0.2% of 24,000 active; anti-FLAG beads, GFP-proteasome disassembly, flow cytometry;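 active means above 40%; inconclusive means likely self-fluorescent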;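 further: plate controls were ATP control with full disassembly for no effect and ATP-gamma-S intact proteasomes for full effect; higher percent means more bead fluorescence retained so stronger block of disassembly; stock transfer was 100 nL into about 10 µL; wells with too few beads may also be inconclusive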
# Starred values were filed as active, the others as inactive; i = inactive; ? = inconclusive; / = no result given. Some of the compounds tested. The share of hits here may be higher or lower than overall.
# Start of the data: the first 3 records (preview)
SMILES	VCAM-1 rise	Proteasome disasm
CCOC(=O)C1CCCN(C(=O)Cn2cccc2C(=O)c2ccccc2)C1 (stereo not given)	/	-1.5
O=C(CSc1nc2ncccc2[nH]1)Nc1ccc2c(c1)OCCO2	i	-3.5
Fc1ccc(C(c2nnnn2Cc2ccco2)N2CCN(C3CCCCC3)CC2)cc1 (stereo not given)	i	0.2

# This part in full (from the top)
SMILES	VCAM-1 rise	Proteasome disasm
CCOC(=O)C1CCCN(C(=O)Cn2cccc2C(=O)c2ccccc2)C1 (stereo not given)	/	-1.5
O=C(CSc1nc2ncccc2[nH]1)Nc1ccc2c(c1)OCCO2	i	-3.5
Fc1ccc(C(c2nnnn2Cc2ccco2)N2CCN(C3CCCCC3)CC2)cc1 (stereo not given)	i	0.2
COCCCN(C(=O)Nc1ccccc1)C(C)c1ccncc1 (stereo not given)	/	-2.4
CCC(Sc1nc(C)cc(=O)[nH]1)C(=O)Nc1nc2c(s1)CCCC2 (stereo not given)	/	-0.9
CCOC(=O)Nc1c(O)ccc2oc(C)c(-c3ccccc3)c12	i	-2.2
C(=N\n1cncn1)/c1ccc(N2CCOCC2)cc1	/	-0.2
Brc1cccc(-c2nnc3sc(CN4CCCCC4)cn23)c1	/	-1.8
COc1ccc(NC(C)=O)cc1NC(=O)CN1CCN(c2ccccn2)CC1	i	-1.1
COc1ccccc1OCc1ccc(C(=O)NCCN(C)C)o1	/	-0.8
CCOC(=O)C1CCN(C(=O)c2oc3ccc(S(=O)(=O)N4CC(C)CC(C)C4)cc3c2C)CC1 (stereo not given)	/	3.6
CCOC(=O)CSc1nnc(CNC(=O)c2ccc(S(=O)(=O)N3CCCCC3)cc2)n1C	/	-2.8
Cn1c(=O)[nH]c(=O)c2c1ncn2CCN1CCOCC1	i	-1.6
CCOc1cc(C2C3=C(CCCC3=O)N(C)C3=C2C(=O)CCC3)cc(Cl)c1O	i	0.0
COc1ccc(-n2c(Cn3c(=O)sc4ccccc43)nnc2SCC(N)=O)cc1	/	1.4
O=C(CSc1nc(C2CCCCC2)n(-c2ccccc2)n1)NCCN1C(=O)CSC1=O	i	-0.6
CCOC(=O)C1CCCN(c2ncnc3c2cnn3-c2cccc(C)c2)C1 (stereo not given)	/	-1.4
CNC(=O)c1ccccc1NC(=O)c1c(O)c2c([nH]c1=O)CCCC2	i	1.1
c1ccc2c(c1)CCN(c1nc3cc4c(cc3s1)OCO4)C2	/	3.7
CCOC(=O)C(C)(C)Sc1ncnc2nc[nH]c12	/	0.1
CC(=O)c1ccc(NC(=O)CSc2nnc(Cc3cccn3C)n2-c2ccc(F)cc2)cc1	/	-1.0
Cc1ccc(-c2[nH]nc3c2C(c2ccccc2OC(=O)N2CCOCC2)C(C#N)=C(N)O3)cc1 (stereo not given)	/	-0.1
CCOc1cc(N2C(=O)CC3CS(=O)(=O)CC32)c(OCC)cc1NC(=O)c1ccccc1 (stereo not given)	/	1.4
CCc1ccc(NC(=O)N(CCCN2CCOCC2)C(C)c2cc3cccc(OC)c3o2)cc1 (stereo not given)	/	0.1
CCN(CC(=O)Nc1ccc2c(c1)CCC2)Cc1nc2ccccc2c(=O)[nH]1	i	-1.6

# The results go on.
SMILES	VCAM-1 rise	Proteasome disasm
Cc1nc2ccc(S(=O)(=O)N(C)CC(=O)N3CCc4ccccc43)cc2s1	/	2.2
CCOC(=O)N1CCC(NC(=O)CS(=O)Cc2nc(-c3ccc(OC)c(OC)c3)oc2C)CC1 (stereo not given)	/	-1.6
CCOC(=O)C1(c2ccccc2)NC(c2ccc(N(C)C)cc2)C2C(=O)N(C)C(=O)C21 (stereo not given)	i	?
CC(C)N(Cc1nc(-c2ccccc2)no1)C(=O)c1ccc(Cl)cc1	/	3.5
Cc1cc(C)nc(SCc2csc(N)n2)n1	i	0.3
CCOC(=O)c1ccc(NC(=O)C2=C(C)Nc3nc(CCCO)nn3C2c2ccc(OC)cc2)cc1 (stereo not given)	/	-1.9
Cc1ccccc1CSc1nc2n(n1)C(c1cccs1)C1=C(CCCC1=O)N2 (stereo not given)	/	5.4
COc1cc(C2/C(=C(/O)c3ccc(F)cc3)C(=O)C(=O)N2CCCC(=O)O)ccc1O (stereo not given)	/	0.6
Clc1c(CSc2nc3ccccc3o2)nc2sccn12	i	0.4
CC(=O)Nc1sc2c(c1C#N)CCCCC2	i	-3.7
COc1ccccc1Nc1nc(C)cs1	/	0.6
CCOC(=O)c1[nH]c(C)c(C(=O)NCCN2CCOCC2)c1C	/	-0.5
Cc1cc(=O)oc(C)c1C(=O)NCC1COc2ccccc2O1 (stereo not given)	/	9.9
COc1cccc(Cn2nnc(C(=O)Nc3cc(Cl)ccc3OC)c2N)c1	/	1.1
CC(=O)c1c[nH]c2ccc(C)cc2c1=O	/	3.7
CC(C)[C@H](NC(=O)OC(C)(C)C)c1nnc(S(=O)(=O)Cc2c(F)cccc2Cl)o1	i	2.2
COC(=O)C(NC(C)=O)(Nc1ccccn1)C(F)(F)F (stereo not given)	i	-1.9
COC(=O)c1sc(=S)n(-c2cccc(Cl)c2)c1N	/	-3.9
O=C(CCc1nc(-c2ccccc2F)no1)NCCN1CCN(Cc2ccccc2)CC1	/	-1.0
O=C(C1CCCCC1)N1CC(=O)N2CCc3ccccc3C2C1 (stereo not given)	i	-0.6
OC[C@H]1O[C@@H](n2cnc3c(Nc4ccccc4)ncnc32)[C@H](O)[C@@H]1O	i	-1.0
CCOC(=O)C1=C(C)Nc2nc(C)nn2C1c1ccc(C)cc1 (stereo not given)	/	0.3
CC(OC(=O)c1ccco1)C(=O)NCc1cccs1 (stereo not given)	i	-1.2
COc1ccc(-n2c(Cc3cccn3C)nnc2SCC(=O)Nc2ccc3c(c2)OCO3)cc1	/	0.9
CCOC(=O)C1CCN(C(=O)Nc2ccc3nc(C)c(C)nc3c2)CC1	i	7.0

# (continued)
SMILES	VCAM-1 rise	Proteasome disasm
Cc1ccc(CS(=O)(=O)CCC(=O)NCCN2CCCCC2C)cc1 (stereo not given)	/	-20.1
C=CCn1c(-c2cccs2)nc2nc3ccccc3nc21	i	0.0
O=C(Nc1ccccc1C(F)(F)F)N1CCN(c2ccc3nncn3n2)CC1	/	0.8
Cc1ccc(C)c(NC(=O)c2nnn(Cc3ccccc3C)c2N)c1	/	0.7
O=C(CN1CCCN(S(=O)(=O)c2ccc(Br)cc2)CC1)Nc1ccc2c(c1)OCO2	i	0.5
COc1ccccc1NC(=O)N(Cc1ccccc1)C1=NCC(C)S1 (stereo not given)	/	-5.3
CCOC(=O)C(CC)n1cnc2c(oc3ccccc32)c1=O (stereo not given)	/	0.5
CCOC(=O)c1[nH]c(C)c(C(=O)NC2CCCCC2)c1C	/	-1.0
O=C(NCCc1cccc(Cl)c1)c1cccnc1	i	-2.0
COc1ccc(NC(=O)Cn2nc3n(c2=S)CCC3)cc1	/	-0.3
O=S(=O)(c1cccc2nsnc12)N1CCN(c2ncccn2)CC1	i	0.0
CC(C)(C)NC(=O)c1ccc(COc2ccccc2Br)o1	/	2.9
CCc1ccccc1NC(=O)C(CC)Sc1nc2cc3c(cc2c(=O)n1Cc1ccco1)OCO3 (stereo not given)	i	0.8
Cn1cnc2cc(NC(=O)c3ccc(Cl)cc3)ccc21	i	1.4
O=C(CCNC(=O)Cn1ccc2ccccc2c1=O)NCCN1CCN(c2cccc(Cl)c2)CC1	/	0.4
CCCNC(=O)c1cc(-c2ccc(OC)cc2)on1	/	0.3
NS(=O)(=O)c1ccc(CCNC(=O)C2CCCN(S(=O)(=O)c3cccnc3)C2)cc1 (stereo not given)	/	2.2
O=C(NCCc1ccc(Cl)cc1)C1CCC(=O)N1C1CCCC1 (stereo not given)	/	-0.1
Cc1cc(SCc2ccccc2)nc(=O)[nH]1	/	1.5
CC1(C)NC(=O)N(CC(O)CN2CCCC2)C1=O (stereo not given)	i	0.8
O=C(CN1C(=O)CSc2ccccc21)NC1CCCC1	/	0.3
COc1ccccc1N1CCN(C(=O)C2CCN(S(=O)(=O)c3ccc(F)cc3)CC2)CC1	i	-5.3
O=C1c2ccccc2N2C(=O)c3ccccc3C2N1O (stereo not given)	/	1.1
CC(C)[C@H](NC(=O)OC(C)(C)C)c1nnc(SCC(=O)Nc2ccc(Br)cc2)o1	i	1.7
Cc1cc(Cl)c(S(=O)(=O)N2CCN(c3ccc(F)cc3)CC2)cc1OCC(N)=O	i	0.6

# Whole records, looked up by structure.
# O=C(NCCc1cccc(Cl)c1)c1cccnc1 reads VCAM-1 rise: i; Proteasome disasm: -2.0
# CCCNC(=O)c1cc(-c2ccc(OC)cc2)on1 reads VCAM-1 rise: /; Proteasome disasm: 0.3

# More records follow:
SMILES	VCAM-1 rise	Proteasome disasm
O=S(=O)(NCCc1ccccn1)c1cccs1	i	0.4
Cc1oc(-c2ccccc2F)nc1CN1CCC(C(=O)NCc2cccnc2)CC1	/	0.0
CCCN1CCN(CCCNC(=O)Cn2nc(-c3ccc(C)cc3)ccc2=O)CC1	/	0.2
COc1ccc(-n2c(Cc3cccn3C)nnc2SCC(=O)Nc2ccc3c(c2)OCCO3)cc1	/	2.2
CS(=O)(=O)Nc1ccc(C(=O)NCc2ccc3c(c2)OCO3)cc1	i	-1.0
COc1ccc(N(C(=O)c2ccc(S(=O)(=O)N3CCOCC3)cc2)C2C=CS(=O)(=O)C2)cc1 (stereo not given)	/	-1.6
COc1cccc(C(=O)Nc2ccc(NC(C)=O)cn2)c1	i	-0.2
CCOc1cc2[nH]c(=S)n(CCCN3CCN(C)CC3)c(=O)c2cc1OCC	/	0.1
CCCOc1ccc2oc(=O)c3c(c2c1)CCCN3C(=O)CN1CCN(C(=O)c2ccco2)CC1	/	2.1
COCCn1c(SCC(=O)Nc2cccc(OC)c2)nnc1-c1ccccc1	i	-1.8
O=C(NCc1ccco1)c1cccn2c(=O)c3sccc3nc12	i	0.5
c1ccc2c(c1)[nH]c1c(N3CCC4(CC3)OCCO4)ncnc12	i	0.5
CCOC(=O)N1CCN(C(=O)CSCc2nc(-c3ccccc3F)oc2C)CC1	/	-1.3
CC(=O)Nc1c(C(=O)C2CC2)oc2ccccc12	i	-0.4
C=CCSc1ncccc1C(=O)NCc1ccccc1	/	-1.4
CCn1nc(CC(=O)Nc2nnc(CC(=O)N3CCCCC3)s2)c2ccccc2c1=O	i	0.5
Cc1ccc(-n2c(SCC(=O)NCC3CCCO3)nc3n[nH]c(C)c3c2=N)cc1Cl (stereo not given)	/	1.0
O=C(NCc1cccs1)C1CC(=O)N(C2CCCC2)C1 (stereo not given)	i	0.1
CCOCCCn1c(=S)[nH]c2cc(C(=O)N3CCOCC3)ccc2c1=O	/	-0.6
CC1CCCCC1NC(=O)COc1ccc(-n2cnnn2)cc1 (stereo not given)	i	-1.4
Cc1sc2ncn(CC(=O)NCc3ccccn3)c(=O)c2c1S(=O)(=O)N1CCOCC1	/	-0.1
CCC(=O)NC(C)c1nc2ccccc2n1C (stereo not given)	/	0.8
C=CCc1c(C)nc2c(C(=O)O)cnn2c1C	/	0.8
CCOC(=O)c1cn(CC(=O)Nc2ccc(C)cc2)nn1	/	-1.6
CCN1CCCC1CNC(=O)CN1C(=O)COc2ccc(C)cc21 (stereo not given)	/	-0.7

# Following part:
SMILES	VCAM-1 rise	Proteasome disasm
Cc1cccc(NC(=O)NCC(c2cccnc2)N2CCOCC2)c1 (stereo not given)	/	-0.1
Cc1ccc(-c2nc(CS(=O)(=O)CC(=O)NCCCN3CCN(C)CC3)c(C)o2)cc1	/	0.6
CC(=O)N1C(C(=O)O)CSC1c1cccc(C)c1 (stereo not given)	/	0.8
COc1ccc(NS(=O)(=O)c2coc(C(N)=O)c2)cc1Cl	i	-0.4
Cc1sc2nc(SCc3nc4ccccc4[nH]3)n(Cc3ccco3)c(=O)c2c1C	i	1.3
CCOC(=O)c1oc2ccccc2c1CSc1nnnn1-c1ccc(OC)cc1	i	-1.6
COc1cc(OC)cc(C(=O)NCc2n[nH]c(=S)n2-c2ccccc2OC)c1	i	0.0
Cc1n[nH]c(C)c1S(=O)(=O)N1CCc2ccccc21	/	2.4
Cn1cnnc1Sc1nc2c(c(=O)n(C)c(=O)n2C)n1C	i	-1.1
O=C1C2CCCN2C(c2ccc(Br)cc2)N1c1ccc(F)cc1 (stereo not given)	/	8.9
O=C(Nc1ccc(N2CCOCC2)cc1)C1CC1	i	-1.1
CCOc1ccc(-n2c(=O)c3c(C)c(C)sc3n(CC(=O)NCc3ccco3)c2=O)cc1	/	1.4
O=C(CN1C(=O)CSc2ncccc21)NCCN1CCOCC1	/	-2.2
N#C/C(=C\c1ccc(O)c(O)c1)C(=O)NCCCc1ccccc1	i	0.5
COc1cccc(C2=NOC(C(=O)Nc3ccc(OC)c(OC)c3)C2)c1 (stereo not given)	/	-0.8
O=C(CSc1nnc(-c2cccs2)o1)N1CCCCC1	/	0.5
CCOC(=O)N1CCN(C(=O)C2CCN(S(=O)(=O)c3ccc(Br)s3)CC2)CC1	/	-1.9
CCOC(=O)CSc1nn(C)c(=S)s1	i	0.3
CC(CCc1ccccc1)NC(=O)C1CCN(c2nnc(-n3cccc3)s2)CC1 (stereo not given)	/	-2.5
Cc1cc(C(=O)NCCCc2ccccc2)no1	i	0.8
CCOC(=O)CCn1nnc(N)n1	/	-1.7
CCOC(=O)CSc1nnc([C@H](CC(C)C)NC(=O)OC(C)(C)C)o1	i	1.1
